# Source: PubChem (Fisher Drug Discovery Resource Center)
# NPYLR7 agonist – agonists of mosquito NPYLR7 receptor, primary screen, cell-based, Aedes aegypti, calcium fluorescence, mosquito biting behavior; HEK293T NPYLR7/Galpha15, GCaMP6s calcium fluorescence; activation, % at 10 µM; 270,000 compounds, 0.15% hits; AID 1259423, 2018; in the data active means activation above about 40%;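 further: 0% = vehicle and 100% = reference agonist at the receptor; some compounds past the cut are filed as inactive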
# NPYLR7 agonist max-min – second read-out of NPYLR7 agonist, no call of its own (marks repeat the call); activation, %; measured here: Max-Min RFU normalised activation; some inactives read as strong as hits;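 span of the calcium signal over five minutes; 0% = vehicle and 100% = native peptide agonist; compound fluorescence can raise it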
# * hit, by the source's call; & = joins results of further samples. An excerpt; rates above refer to the full screens.
SMILES,NPYLR7 agonist,NPYLR7 agonist max-min
CCOc1ccc(-c2ccc(=O)n(CCNS(=O)(=O)c3cccc(C(F)(F)F)c3)n2)cc1,8,6
CN(C(=O)c1ccccc1NC(=O)NC1CCC(O)CC1)C1CCCCC1 (stereo unspecified),-1,13
NC(=O)NN=Cc1ccc(N2CCOCC2)s1,11,8
CCn1c(N)c(C(=O)Nc2sc3c(c2C(=O)NC)CCCC3)sc1=S,9,3
Cc1ccc(C(=O)c2coc3ccc(C)cc3c2=O)cc1,-5,-5
CCOC(=O)CC1C(=O)NCCN1C(=O)CCCCCNC(=O)OCc1ccccc1 (stereo unspecified),-8,-11
COCCOCC(=O)N1CCC2(CC1)C(=O)NCCN2C,4,-1
COc1ccc(-n2nc(-c3ccccc3)cc2NC(=O)C2CCC2)cc1,12,6
COc1ccc(-c2cc3ccc4c(c3oc2=O)CN(Cc2ccncc2)CO4)cc1OC,30,35
Cc1nnsc1C(=O)NCCn1nc(-c2cccs2)n(C)c1=O,1,-2
O=C(c1cccc(C(F)(F)F)c1)N1CC(=O)N(C2CCC2)CC(O)C1 (stereo unspecified),2,12
COc1c[nH]c(C(=O)N2CCCC(CCc3ccc(F)c(F)c3)C2)cc1=O (stereo unspecified),-2,-5
COc1ccc(-c2[nH]nc3c2C(c2ccncc2)C(C#N)C(=N)O3)cc1 (stereo unspecified),-4,-11
O=C(C1COCCO1)N1Cc2cnn(Cc3ccc(F)cc3)c2C1 (stereo unspecified),5,4
COC(=O)CCCC(=O)N1CCCC(CCc2ccc(F)c(F)c2)C1 (stereo unspecified),13,7
COc1ccccc1C1CN(CC(=O)NCC2(c3ccccc3)CCOCC2)Cc2ccccc2O1 (stereo unspecified),11,-3
CCOc1ccc(NC(=O)c2c(NC(=O)c3ccco3)sc3c2CCCC3)cc1,3,10
Cc1occc1C(=O)Nc1cc(Cl)ccc1C(=O)O,-1,1
O=C(Cc1ccccc1)N(Cc1ccco1)Cc1c(-c2ccc(F)cc2)noc1N1CCOCC1,-7,13
CCC(Nc1ccc([N+](=O)[O-])cc1S(=O)(=O)N1CCOCC1)c1ccc(C)cc1 (stereo unspecified),22,21
COc1cccc(OCc2cc(C(=O)N3CCc4sccc4C3)n[nH]2)c1,-7,-7
COc1ccc(-c2nn(-c3ccccc3C)c(OC(C)=O)c2-c2ccc(NC(=O)c3ccccc3Cl)cc2)cc1,-2,-1
O=c1c2c(-c3ccccc3)n3ncnc3nc2ccn1CCc1ccccc1,-4,1
COc1ccc(-c2c(-c3ccc(OCCN4CC(C)OC(C)C4)cc3O)n[nH]c2C)cc1 (stereo unspecified),0,-3
COCCC(=O)N(C)C1c2ccccc2-c2ccccc21,-1,-2
CSc1nnc(C)c(=O)n1COC(=O)c1ccc(Cl)cc1,1,2
O=C1NC(=S)S/C1=C/c1cc(Br)c(O)c(Br)c1,24,20
COCCS(=O)(=O)c1nc(-c2ccc(C)cc2)cs1,-4,-4
Cc1nn(-c2ccc(C(F)(F)F)cn2)c(C)c1CC(=O)O,-2,-4
c1ccc(-c2csc(-c3nc(-c4ccccc4)cs3)n2)cc1,-5,-9

# Of the compounds above, three have a Cl atom:
SMILES,NPYLR7 agonist,NPYLR7 agonist max-min
Cc1occc1C(=O)Nc1cc(Cl)ccc1C(=O)O,-1,1
COc1ccc(-c2nn(-c3ccccc3C)c(OC(C)=O)c2-c2ccc(NC(=O)c3ccccc3Cl)cc2)cc1,-2,-1
CSc1nnc(C)c(=O)n1COC(=O)c1ccc(Cl)cc1,1,2

# More results.
SMILES,NPYLR7 agonist,NPYLR7 agonist max-min
O=C(c1ccc(F)cc1)N(Cc1nc2cc(Cl)ccc2o1)C1CCCC1,-2,12
COC(=O)C1CCCCN1Cc1nc(-c2ccc(C)o2)oc1C (stereo unspecified),21,9
O=C(Nc1ccon1)c1sc2cc(Cl)cc(Cl)c2c1Cl,-4,-2
CSCC(=O)N1CCCC(Nc2ccc3c(c2)OCCO3)C1 (stereo unspecified),11,5
O=C(NCc1ccc(OCCN2CCCC2)cc1)Nc1cn[nH]c1,8,7
Cc1c(Cl)cccc1S(=O)(=O)N(CCC(N)=O)c1ccccc1,2,6
CO[C@H]1[C@H](NC(=O)c2ccncc2)c2ccccc2C12CCN(C(=O)CCC1CCCCC1)CC2,17,3
Cc1ccc(-c2nnco2)cc1NC(=O)NC(c1ccccc1)C1CC1 (stereo unspecified),3,4
Cc1cc(C(=O)Nc2ccc(SC(F)F)cc2)no1,11,7
COCC(=O)N1CCC(Oc2ccc(C(=O)NC(c3ccco3)C(F)(F)F)cc2)CC1 (stereo unspecified),3,1
CC(C)N(Cc1ccccc1)Cc1cc([N+](=O)[O-])cc2c1OCOC2,2,13
CCC(C(=O)N(CC(=O)N1CCc2sccc2C1c1ccc(C(C)(C)C)cc1)C1CC1)c1ccccc1 (stereo unspecified),-5,-4
COC(=O)Cn1c(=O)c2c(nc3n(-c4cc(C)cc(C)c4)c(C)cn23)n(C)c1=O,14,4
O=C(Nc1cccc(-c2nnco2)c1)c1ccc2c(=O)n3c(nc2c1)CCCCCC3,4,0
CC(C)(C)c1ccc(OCC(=O)ON=C(N)c2cccnc2)c(Br)c1,-3,-2
CS(=O)(=O)Nc1cccc(C(=O)N2CCCC2Cc2ccc(F)cc2)c1 (stereo unspecified),13,9
O=C(NCc1ccco1)c1cc2cc(Br)cc(Br)c2oc1=O,-8,-15
O=C1C(Cc2ccccc2)N=C2c3ccccc3N=C(SCc3cc(=O)n4cc(Br)ccc4n3)N12 (stereo unspecified),9,5
CC(=O)Oc1cc(OC(C)=O)c2c(c1)O[C@H](c1ccc(OC(C)=O)c(OC(C)=O)c1)[C@H](OC(C)=O)C2,-5,-11
CCOc1ccc2nc(N(CCCN3CCOCC3)C(=O)c3ccc([N+](=O)[O-])o3)sc2c1,1,-2
CCOCC(=O)N1CCN(Cc2cccc(-c3noc(-c4ccco4)n3)c2)CC1,5,0
CN(C(=O)COC(=O)C=Cc1ccco1)C1CCCCC1,0,-2
COCCCC(=O)N(C)c1cccc(C)n1,-1,-8
CSCC(=O)N1CCOc2c(O)cc(-c3cccc(Cl)c3)cc2C1,-5,-6
O=C(c1ccco1)N1CCN(C(C(=O)N2CCSCC2)C2CCCC2)CC1 (stereo unspecified),-6,20
Cc1sc2ncn(/N=C\c3ccccc3C(F)(F)F)c(=O)c2c1C,-8,-11
CN(C)c1ccc(NC(=O)CC2CSc3nc4c(cnn4-c4ccccc4)c(=O)n32)cc1 (stereo unspecified),2,0
COc1ccc(-c2nn(-c3ccccc3C)cc2CN(C)Cc2cc(C)[nH]n2)cc1F,2,0
CCCCCn1c(CN2CCc3ccccc3C2)nc2c1c(=O)n(C)c(=O)n2C,7,4
O=S(=O)(Cc1ccc(Br)cc1F)NC1CCN(c2ncccn2)CC1,-9,-8
Cc1cc(CSc2ccccc2C(=O)NCCNc2ccc([N+](=O)[O-])cc2)on1,2,0
Cc1cc(C)c(S(=O)(=O)Nc2c(C)ccn(C)c2=O)c(C)c1,0,3
c1cnc(-c2nnc3sc(C45CC6CC(CC(C6)C4)C5)nn23)cn1,2,-1
O=C1NCCOc2ccc(NS(=O)(=O)c3ccccc3)cc21,-7,-7
COc1cc(-c2[nH]nc3nccc(-c4ccc(CO)cc4)c23)cc(OC)c1OC,1,0
Cn1c(=O)c2c(ncn2C(C(=O)N2CCOCC2)c2ccccc2)n(C)c1=O (stereo unspecified),0,-5
C#Cc1cccc(NC(=O)c2cc3ccccc3c(=O)[nH]2)c1,3,2
CCNC(=O)N1CC[C@H]2CC(=O)N([C@H](C(N)=O)C(C)C)CC[C@H]2C1,-7,-18
CCOCCCN(CC(=O)N(Cc1ccccc1)Cc1cccn1Cc1cccc(OC)c1)C(=O)COC,5,5
COc1cc(CN2CCC(CO)(CC3CCCCO3)CC2)ccc1OCc1ccccc1 (stereo unspecified),11,3
CN(C(=O)CCCn1nc(-c2ccc(F)cc2)ccc1=O)c1ccccc1,-1,0
CC(=O)c1ccc(NC(=O)N(C)c2c(C)nc3ccc(C(=O)NCCCN(C)C)cn23)cc1,21,18
O=C(Nc1ccc(-c2ccc(N3CCCCC3)nn2)cc1)C(F)(F)F,6,4
O=C(c1ccccc1-c1ccc(C(F)(F)F)cc1)N1CCCC(O)C1 (stereo unspecified),4,-3
CC(=O)c1cccc(NC(=O)CSc2nc(=O)n(CCN3CCOCC3)c3c2CCC3)c1,-3,-6
CCC1CN(Cc2cnc(-c3cccs3)nc2)CCN1C(C)C (stereo unspecified),-3,-4
COc1ccc2c(c1)C1(CC2)NC(=O)NC1=O (stereo unspecified),7,6
Cc1cc2ncc(C(=O)OCc3csc(Br)c3)c(=O)n2[nH]1,-1,-1
CCc1ccc(C(O)c2ncc(-c3cccc(C(F)(F)F)c3)[nH]2)cc1 (stereo unspecified),1,-1
O=C(Nc1ccccc1)N1CCCC(OCc2ccc(Br)cc2)C1 (stereo unspecified),-5,-4

# Single records, as listed above:
# CC(=O)c1ccc(NC(=O)N(C)c2c(C)nc3ccc(C(=O)NCCCN(C)C)cn23)cc1 in the list: NPYLR7 agonist: 21; NPYLR7 agonist max-min: 18
# CN(C(=O)CCCn1nc(-c2ccc(F)cc2)ccc1=O)c1ccccc1 in the list: NPYLR7 agonist: -1; NPYLR7 agonist max-min: 0

# Next section:
SMILES,NPYLR7 agonist,NPYLR7 agonist max-min
C(=C\c1ccccc1)/CSc1nnc2c(n1)[nH]c1ccccc12,7,6
COc1ccccc1OCC1CN(C(=O)c2cc(C)nc(Cl)c2)CCO1 (stereo unspecified),-7,-12
N#Cc1ccccc1C(=O)N1CCN(Cc2ccc(-c3noc(-c4cccs4)n3)cc2)CC1,5,3
CCC(NC(=O)N1CCC2(CCOCC2)C1)c1ccc(C)cc1 (stereo unspecified),-8,-7
CC1CC1c1ccc(CN(CCOCCO)C2CC2)o1 (stereo unspecified),5,2
CCN(Cc1cc(=O)c(O)co1)CC1CCN(c2ccccn2)CC1,3,3
CCC(=O)N1N=C(c2ccc(OC)c(OC)c2)CC1c1cc(OC)ccc1OC (stereo unspecified),6,3
Cc1nc(NCCNC(=O)Cc2noc3ccccc23)cc(-n2ccnc2C)n1,-17,-23
CCOC(=O)C1=C(O)/C(=C\c2cccc(O)c2O)SC1=Nc1ccc(C)cc1,9,8
CCOc1cccc(/C=N\NC(=O)C2=C(C)Nc3ccccc3S2)c1O,0,-3

# Reprinted at random: 2 records from the list, in no set order.
SMILES,NPYLR7 agonist,NPYLR7 agonist max-min
COc1cc(-c2[nH]nc3nccc(-c4ccc(CO)cc4)c23)cc(OC)c1OC,1,0
COC(=O)CCCC(=O)N1CCCC(CCc2ccc(F)c(F)c2)C1 (stereo unspecified),13,7

# Remaining list, next part:
SMILES,NPYLR7 agonist,NPYLR7 agonist max-min
O=C(C1CC1)N(Cc1cccc(Cl)c1)CC1CC(c2cccc(F)c2)=NO1 (stereo unspecified),12,8
Cc1cc(C)n(-c2ccc(Cn3nc(-c4cccs4)oc3=O)cc2)n1,10,7
NC(=O)Cn1nc(C2CC2)c2cnn(-c3ccccc3)c2c1=O,0,2
COc1ccc(OCc2ccc(-c3nc(C#N)c(NCC4CCCO4)o3)o2)cc1 (stereo unspecified),0,8
Cc1ccc(C)c(C(O)c2ncc(-c3cccc(C(F)(F)F)c3)[nH]2)c1 (stereo unspecified),20,14
O=C(CCc1ccc(OC(F)(F)F)cc1)NCc1cccnc1,3,0
O=C(Cn1nnc(-c2cccs2)n1)N1N=C(c2ccco2)CC1c1ccco1 (stereo unspecified),4,6
O=C(Nc1cccc(CN2CCCCC2=O)c1)C1CC2CCC1C2 (stereo unspecified),-1,-4
Cc1ccc(Nc2nc(N(C)C)nc3nccnc23)cc1C,4,5
COc1ccc(-c2nc(CS(=O)CC(=O)NC3CCCCC3)cs2)cc1 (stereo unspecified),10,8
CCOC(=O)c1c(C)nn(-c2ccc(C(=O)Nc3ccc(OC)nc3)cc2)c1C,1,0
Cc1cc(C)c(NC(=O)CCc2ccc(S(=O)(=O)N3CCCCC3)cc2)c(C)c1,-8,-6
COc1cccc(/C=C2/SC(=Nc3ccccc3)NC2=O)c1OC,-5,-7
CN(CC(=O)O)C(N)=O,0,10
N[C@H]1CCC[C@@H](C(=O)N(Cc2cccc(Cl)c2)C2CC2)C1,-8,-11
C=CCN(Cc1csc(COc2ccc(C)cc2)n1)C(=O)COC,0,-5
CC(C(O)c1ccc(O)cc1)N1CCC(Cc2ccccc2)CC1 (stereo unspecified),-10&2&-3,-13&-4&-7
CCC(C)NC(=O)c1cc(NC(=O)COc2ccccc2)ccc1N1CCN(c2ccccc2OC)CC1 (stereo unspecified),1,12
CC1(C)OC(=O)CC1C(=O)N1CCC(Oc2ccc(C(F)(F)F)cc2)CC1 (stereo unspecified),6,8
Cc1nn(C)c(C)c1CN(C(=O)c1cnn2ccn(C)c12)C1CC1,-5,-7
N#CC1(NC(=O)c2ccc(Br)cc2)CCC1,0,-3
CCSc1nnc(NC(=O)/C=C/c2cccc([N+](=O)[O-])c2)s1,0,-9
O=C(c1ccc2cccnc2c1O)N1CCCC(O)(CO)CC1 (stereo unspecified),-1,-3
CC(C)(C)n1nc(C(=O)N2CCCN(c3ccccc3C#N)CC2)cc1C1CC1,6,6
O=C(NCc1cccs1)c1nc(-c2cccs2)no1,-3,-2
